HNF4A DNA FP: change in binding of human HNF4 alpha to DNA | P41235 | HNF4a-FITC DNA binding, fluorescence polarization, 1 h | activity change, % at 10 µM | hit rate 0.3% among 360,000 | AID 1224865; in the data active means activity change above about 30%, passing the limit was not always enough;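 further: controls were the assay level and a saturating level of protein; the project sought stronger binding though the title names inhibitors; some compounds called inactive have numbers as strong as hits; positive values seem to mean higher polarization but the record does not say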
UCH37 inh: blocks the human deubiquitinase UCH37; purified proteasome/UCH37, Ub-AMC cleavage fluorescence; inhibition, % (concentration not given with the values); hit rate 0.33% among 330,000; AID 588478;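 active means mean of two replicates above 20%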;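 further: 0% = compound-free wells with enzyme and 100% = wells lacking proteasome; stock transfer was 100 nL into about 20 µL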
Target sequence (Q9Y5K5 whole entry, looked up): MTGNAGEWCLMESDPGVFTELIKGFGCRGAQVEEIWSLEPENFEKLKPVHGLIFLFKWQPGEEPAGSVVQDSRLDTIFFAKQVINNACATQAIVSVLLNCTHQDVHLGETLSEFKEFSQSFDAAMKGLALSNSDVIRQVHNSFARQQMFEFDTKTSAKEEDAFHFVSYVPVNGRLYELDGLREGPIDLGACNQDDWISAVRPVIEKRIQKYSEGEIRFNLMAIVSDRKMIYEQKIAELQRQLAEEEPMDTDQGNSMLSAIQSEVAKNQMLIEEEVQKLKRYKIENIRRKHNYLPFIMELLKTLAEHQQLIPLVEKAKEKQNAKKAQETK
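System: Proteasome-associated human UCH37 deubiquitinase; Input: 0.15 nM proteasome in added enzyme buffer; Also added: Ub-AMC substrate from 1 µM stock; Incubation: 30 min compound-proteasome preincubation then 25 min substrate reaction, room temperature; Detection: fluorescence, ex 355 nm, em 460 nm; Read-out: % inhibition of Ub-AMC cleavage fluorescence; Benchmarks: no-proteasome and no-compound wells.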
Beta2AR agonist: agonists of human beta-2 adrenergic receptor inducing internalization; P07550; Am2.2-beta2AR cells, FAP receptor internalization, flow cytometry; reference of the scale not given here; response, % (concentration not given with the values); hit rate 0.43% among 340,000;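 active means response above a set limit, near 3 SD of response in nonfluorescent compounds, cut at about 42% in these data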;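 further: stock transfer was 100 nL into about 11 µL; a reference agonist was the positive control; negative values mostly stem from fluorescent compounds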
FGF22 binding: binders of recombinant human FGF22 by thermal shift | Q9HCT0 | SYPRO orange fluorescence; percent of sucrose octasulfate shift, DMSO zero | calls only at 9.99 µM | hit rate 1.5% among 340,000;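 active means melting point raised past a set limit in the mean and every replicate; three in four hits are not shown here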
Target sequence (Q9HCT0 whole entry, looked up): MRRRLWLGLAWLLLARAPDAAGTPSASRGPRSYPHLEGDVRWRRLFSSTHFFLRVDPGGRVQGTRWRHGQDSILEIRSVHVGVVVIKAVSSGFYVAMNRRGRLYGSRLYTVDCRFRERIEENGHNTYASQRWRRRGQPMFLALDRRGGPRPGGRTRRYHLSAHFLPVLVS
Ecoli rRNA inh: inhibits bacterial ribosomal RNA function over humanized ribosomes. E. coli WT GFP vs humanized-ribosome RFP mutants, fluorescence, 24 h; hits give low values; DMSO median 0, no signal -100. GFP signal change (wild-type ribosome), % (test concentration not listed). hit rate 1.6% among 350,000;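 active means significant combined selectivity score with lowered wild-type GFP, culture density cut under 30%, mutant RFP and density less affected; inactive means any of these conditions unmet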; further: one replicate is shown; some compounds called inactive have numbers as strong as hits
ALR H2O2 inh: blocks human ALR sulfhydryl oxidase activity. hit rate 3.8% among 290,000. P55789. purified ALR, DTT oxidation, H2O2 HRP-luminol luminescence. inhibition, % (test concentration not listed);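 active means mean and each replicate at 75% or more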;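 further: stock transfer was 7.5 nL into about 7.5 µL; 0% = neutral wells and 100% = wells with inactivated enzyme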
Target sequence (P55789 whole entry, looked up): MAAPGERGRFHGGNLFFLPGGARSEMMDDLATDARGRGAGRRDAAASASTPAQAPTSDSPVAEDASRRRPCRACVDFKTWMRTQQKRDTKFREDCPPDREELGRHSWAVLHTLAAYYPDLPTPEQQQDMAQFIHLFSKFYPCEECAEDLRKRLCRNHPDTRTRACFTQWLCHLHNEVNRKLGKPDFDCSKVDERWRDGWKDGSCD
Ecoli growth: blocks Escherichia coli growth | OD600 absorbance (concentration not given with the values) | OD600, 23 h; hits give low values | hit rate 0.21% among 330,000;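 active means OD600 absorbance below the run mean of sample wells minus 3.6 SD, in any replicate, cut at about 0.56 in these data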;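 further: stock transfer was 300 nL into about 60 µL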
Ecoli rRNA inh OD600: recorded beside Ecoli rRNA inh, whose call it bears; OD600 change, %; measured here: OD600 growth;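 optical density of the mix in the first replicate; 0 = DMSO median and -100 = no signal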
Ecoli rRNA inh RFP: further read-out of Ecoli rRNA inh, marked with its call; RFP signal change, %; measured here: RFP humanized mutant strains;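 first replicate; 0 = DMSO median and -100 = no signal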
Numbers without * were called inactive; i = inactive; · = not tested or not shown. These rows are one share of the data; the hit share may differ from the screen's.

HNF4A DNA FP	Ecoli rRNA inh	Ecoli growth	FGF22 binding	smiles	Ecoli rRNA inh OD600	ALR H2O2 inh	Beta2AR agonist	Ecoli rRNA inh RFP	UCH37 inh
2.2	5	0.7	i	Cc1ccc(NC(=O)C2C3C=CC4(O3)C2C(=O)N(CCCN2CCCCC2)C4C(=O)NC2CCCCC2)cc1C (stereo unspecified)	9	0	0	1.0	0.0
-3.4	0	0.71	i	Cc1noc(C)c1S(=O)(=O)N(CC(=O)NCCc1ccccc1)c1ccc(C(C)C)cc1	4	-13	2	-3.2	3.6
2.1	·	0.71	·	CC1(C)CC(=O)C2=C(C1)OC(N)=C(C#N)C2c1ccccc1OC(=O)N1CCOCC1 (stereo unspecified)	·	-1	-3	·	3.1
3.9	4	0.63	i	CC(OC(=O)CCc1nc2ccccc2c(=O)[nH]1)C(=O)c1ccc(C(C)(C)C)cc1 (stereo unspecified)	1	3	-5	1.5	-3.5
-0.7	-17	0.66	i	Cc1cc(C(=O)OCC(=O)NCc2cccs2)c2ccccc2n1	-4	-7	-4	-1.1	0.3
3.1	-22	0.68	i	Cc1cc(C)n2nc(SCc3cccc(S(=O)(=O)N(C)C)c3)nc2n1	-27	26	-36	1.3	1.1
2.8	·	0.71	·	Cc1sc2nc3n(c(=O)c2c1C)CCCCC3	·	1	-10	·	-0.3
1.6	12	0.75	i	O=S(=O)(c1ccc(Br)cc1Cl)N1CCCN(c2ccc(C(F)(F)F)cn2)CC1	-12	-5	-12	20	1.3
-0.8	·	0.65	·	Cc1ccc(C(C)C)c(OCCNC(=O)c2cncc(Br)c2)c1	·	-16	7	·	1.7
2.3	·	0.72	·	CC(C)(C)OC(=O)NCCc1nnc(SCc2ccc(Cl)cc2)o1	·	-3	-4	·	6.9
-1.8	·	0.72	·	COc1ccc(CN(CC2CCCO2)S(=O)(=O)c2ccc(C(=O)O)cc2)cc1OC (stereo unspecified)	·	-11	-3	·	1.7
1.8	·	0.74	·	O=S(=O)(c1ccc(F)c(F)c1)N1CCN(Cc2ccc3c(c2)OCO3)CC1	·	-9	4	·	0.9
-4.3	-16	0.7	i	CN(C)N(Cc1ccccc1)C(=O)C(O)(c1ccccc1)c1ccccc1	-33	-2	-2	-3.8	2.5
-2.6	-1	0.67	i	CC1CCN(Cc2nnc(-c3cccc(Br)c3)o2)CC1	-8	-2	9	-2.7	1.7
1.2	·	0.74	·	COc1ccc(C(=O)CSc2nccc(=O)[nH]2)cc1	·	9	0	·	5.5

One compound at a time, as listed above:
Cc1sc2nc3n(c(=O)c2c1C)CCCCC3 is listed with HNF4A DNA FP: 2.8; Ecoli rRNA inh: ·; Ecoli growth: 0.71; FGF22 binding: ·; Ecoli rRNA inh OD600: ·; ALR H2O2 inh: 1; Beta2AR agonist: -10; Ecoli rRNA inh RFP: ·; UCH37 inh: -0.3
CC1CCN(Cc2nnc(-c3cccc(Br)c3)o2)CC1 is listed with HNF4A DNA FP: -2.6; Ecoli rRNA inh: -1; Ecoli growth: 0.67; FGF22 binding: i; Ecoli rRNA inh OD600: -8; ALR H2O2 inh: -2; Beta2AR agonist: 9; Ecoli rRNA inh RFP: -2.7; UCH37 inh: 1.7

A draw from above in order of count of non-hydrogen atoms, descending:
HNF4A DNA FP	Ecoli rRNA inh	Ecoli growth	FGF22 binding	smiles	Ecoli rRNA inh OD600	ALR H2O2 inh	Beta2AR agonist	Ecoli rRNA inh RFP	UCH37 inh
1.8	·	0.74	·	O=S(=O)(c1ccc(F)c(F)c1)N1CCN(Cc2ccc3c(c2)OCO3)CC1	·	-9	4	·	0.9
-2.6	-1	0.67	i	CC1CCN(Cc2nnc(-c3cccc(Br)c3)o2)CC1	-8	-2	9	-2.7	1.7
1.2	·	0.74	·	COc1ccc(C(=O)CSc2nccc(=O)[nH]2)cc1	·	9	0	·	5.5

Other results follow:
HNF4A DNA FP	Ecoli rRNA inh	Ecoli growth	FGF22 binding	smiles	Ecoli rRNA inh OD600	ALR H2O2 inh	Beta2AR agonist	Ecoli rRNA inh RFP	UCH37 inh
4.3	5	·	i	CC(C)(C)OC(=O)N[C@@H](COCc1ccccc1)C(=O)N[C@@H](CO)[C@H](O)[C@@H]1C[C@@H]1C(=O)NC1CCCCC1	2	-4	5	-6.5	4.8
1.6	11	0.7	·	CC(NC(=O)CCNC(=O)c1ccco1)c1ccccc1 (stereo unspecified)	4	0	-1	0.7	4.0
3.2	0	0.73	·	CCOC(=O)C1CCN(Cc2ccc(O)c(OC)c2)CC1	-6	2	10	3.8	2.0
-1.1	0	0.69	i	CC(NC(=O)c1ccccc1Cl)C(=O)OCc1cn2cc(Cl)ccc2n1 (stereo unspecified)	1	0	1	0.3	2.4
-2.5	11	0.72	i	O=C(NCc1ccc(F)cc1)c1cnc2sccn2c1=O	15	·	-8	0.2	-17
-7.0	10	0.7	i	CCc1ccccc1NC(=O)CCS(=O)(=O)c1ccc(Br)cc1	13	-4	-3	-1.7	3.1
1.6	0	0.71	i	Cc1cc(C)c(-c2csc(NC(=O)C3=COCCO3)n2)cc1C	-39	37	3	18	4.6
0.8	·	0.68	·	CC1CN(C(=S)c2cccc([N+](=O)[O-])c2)CC(C)O1 (stereo unspecified)	·	-4	10	·	3.4
3.6	·	0.7	·	CCOC(=O)c1nnn(CC(=O)N2N=C(c3cc(C)ccc3C)CC2c2ccc(OC)cc2)c1C(=O)OCC (stereo unspecified)	·	-21	-10	·	4.7
5.8	·	0.71	·	Cn1cccc1C(=O)OCc1csc(-c2ccccc2)n1	·	96*	-1	·	0.0
3.9	2	0.69	i	COc1ccccc1OCC(=O)N1CCC2(CC1)CC(=O)c1ccccc1O2	1	0	-3	-0.5	-20
0.3	5	0.74	i	CCCC(=O)OCC(=O)Nc1ccc([N+](=O)[O-])cc1C#N	-11	-12	5	-8.4	5.0
2.5	·	0.69	·	COc1ccccc1OCC(=O)OCC(=O)NCCN1C(=O)CSC1=O	·	-4	10	·	3.2
2.0	·	0.7	·	CCOC(=O)N1CCN(C(=O)c2ccc3c(=O)n(Cc4ccc(Cl)cc4)c(=S)[nH]c3c2)CC1	·	-3	11	·	0.7
-0.9	·	0.71	·	Cc1ccc(NC(=O)c2cc3c(s2)CCC3)cc1S(=O)(=O)N1CCOCC1	·	7	11	·	2.1

More compounds
HNF4A DNA FP	Ecoli rRNA inh	Ecoli growth	FGF22 binding	smiles	Ecoli rRNA inh OD600	ALR H2O2 inh	Beta2AR agonist	Ecoli rRNA inh RFP	UCH37 inh
-3.4	6	0.71	i	O=C(Nc1cccc(C(=O)O)c1)/C(=C/c1ccc([N+](=O)[O-])cc1)NC(=O)c1ccccc1	5	-9	9	-3.9	7.8
4.9	-8	0.66	i	Nc1nc(-c2ccccc2)c(C(=O)Nc2ccccc2)s1	-15	0	-6	-2.3	2.1
-1.7	-1	0.72	i	C=CCSc1nnc(CCCCCN2C(=O)c3cccc4cccc(c34)C2=O)o1	-5	·	2	-1.4	-44
-4.0	10	0.67	i	COc1ccc(C(=O)N2CCN(CCNC(=O)C(=O)Nc3ccc(F)cc3)CC2)cc1	11	2	5	0.2	4.4
1.0	-12	0.71	i	COc1ccccc1N=C1SC(C(=O)Nc2cccc(Cl)c2Cl)C(N)=C1C(N)=O (stereo unspecified)	-12	·	-8	6.5	1.9
0.6	4	0.69	i	CN(C(=O)c1ccc(Cl)c([N+](=O)[O-])c1)C1(C)CCS(=O)(=O)C1 (stereo unspecified)	6	-5	-3	-3.2	3.8
0.1	-9	·	i	CCc1nc2ccc(C(=O)NCc3ccc(OC)cc3)cn2c1N(C)CCC(C)C	-10	·	·	4.5	·
-1.0	10	0.71	i	CCOC(=O)CNC(=O)CN1CCC(c2nc3ccccc3[nH]2)CC1	16	-7	-2	-0.8	1.3
-1.2	-5	0.67	i	O=C(Nc1ccc(Cl)cc1)C1C2C=CC3(O2)C1C(=O)N(CCN1CCCCC1)C3C(=O)NC1CCCCC1 (stereo unspecified)	0	0	-3	-1.7	3.9
-0.5	13	0.64	i	CCC(C)NC(=O)CN1C(=O)c2cccc3cccc1c23 (stereo unspecified)	11	-15	-2	-0.4	-14
-6.5	2	0.71	i	COc1cc(C(=O)N2CCN(S(=O)(=O)c3cccc(F)c3)CC2)ccc1OCC(=O)N1CCOCC1	7	·	5	-1.9	2.3
-2.0	·	0.74	·	CCCCOc1ccccc1P(=O)(O)CP(=O)(c1ccccc1)c1ccccc1	·	-5	-1	·	-0.5
-2.4	-1	0.7	i	COc1ccc(-c2ccc3oc(-c4ccsc4)cc3c2)cc1	0	-1	-3	-9.0	1.4
-2.6	2	·	i	COc1cccc(/C=C/C(=O)OCC(=O)NC2CCCCCC2)c1	-1	·	·	7.5	·
-1.3	·	0.67	·	COc1cc(-c2nc(-c3cccc(C(F)(F)F)c3)no2)cc(OC)c1OC	·	-5	-6	·	-1.0

Further records follow.
HNF4A DNA FP	Ecoli rRNA inh	Ecoli growth	FGF22 binding	smiles	Ecoli rRNA inh OD600	ALR H2O2 inh	Beta2AR agonist	Ecoli rRNA inh RFP	UCH37 inh
-0.7	9	0.68	i	CNC(=O)c1[nH]cnc1C(=O)NCC(=O)OCc1ccccc1	29	·	4	-2.5	-0.1
-1.4	2	0.69	i	O=C(Nc1ccccc1C(=O)N1CCCCC1)c1ccco1	10	·	2	2.3	0.8
-2.5	·	0.7	·	COc1ccc2c(c1)c1nnc(SCC(=O)N3CCCCC3C)nc1n2C (stereo unspecified)	·	·	-6	·	2.0
0.6	-26*	·	i	CS(=O)(=O)c1sc(C#N)c2c1C(=O)CC(c1ccccc1)C2 (stereo unspecified)	6.0*	·	106*	-0.3*	·
2.0	-3	0.69	i	CCN(C(=O)COC(=O)c1n[nH]c2ccccc12)c1ccccc1	-19	1	-4	1.2	0.0
4.7	13	0.67	·	Cc1cccc(C)c1OCCCN1CCOCC1	8	-3	-5	0.0	5.8
-0.8	·	0.76	·	COc1ccc(OC2C(=O)N(CCc3ccc(OC)c(OC)c3)C2c2ccc3c(c2)OCO3)cc1 (stereo unspecified)	·	-5	7	·	-3.8
-3.2	4	0.69	i	COc1ccccc1OCC(=O)Nc1ccc2c(c1)OCO2	-3	·	9	-0.3	1.2
0.5	9	0.69	i	CCCCn1c(N)c(N(CC)C(=O)c2ccncc2)c(=O)[nH]c1=O	4	-4	-4	-1.5	-3.1
-1.1	·	0.71	·	CC(C)(C)NC(=O)C(c1ccco1)N(Cc1ccc2c(c1)OCO2)C(=O)Cn1nnc2ccccc21 (stereo unspecified)	·	-5	-3	·	1.2
-1.0	·	0.79	·	O=C(Cc1ccccc1)NC(=S)Nc1cc(C(F)(F)F)ccc1Cl	·	9	2	·	6.9
1.0	·	0.65	·	CCc1ccc(N(C(=O)c2csnn2)C(C(=O)NCc2ccccc2)c2ccco2)cc1 (stereo unspecified)	·	-7	2	·	0.8
